# Source: PubChem BioAssay
# Vaccinia stage – Vaccinia orthopox stage-specific inhibition; 89,000 compounds, 0.01% hits; activity change (mCherry), % (no concentration beside the values); Vaccinia-infected cells, mCherry/Venus stage reporter fluorescence; stronger effect = lower value; some inactives read as strong as hits;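 active = mCherry past -33% and 40 or more points under the early reporter, replicates agreeing; inconclusive = past -33% without that gap or agreement; tested in A549 cells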;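 note: scaled between vehicle wells and reference inhibitor wells; 23 nL library stock went into each well; one replicate is shown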
# Vaccinia stage Venus – recorded beside Vaccinia stage, whose call it bears; activity change (Venus), %; measured here: Venus reporter, other viral stage;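 negative = less Venus signal; first of two replicates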
# Active calls of the source: *; ? = inconclusive; nt = not tested or not shown. Some of the compounds tested; the hit share may differ from the screen's.
# Results follow in this order: Vaccinia stage | Vaccinia stage Venus
> COc1ccc(-c2cnc3c(c2)C(=O)N([C@H](C)CO)C[C@H](C)[C@H](CN(C)S(=O)(=O)c2cccc(F)c2)O3)cc1
 : -32 | -31
> CO[C@@H]1CN(C)C(=O)c2ccc(NC(=O)c3cccc(F)c3)cc2OC[C@H](C)N(CC2CC2)C[C@@H]1C
 : -3 | -2
> Cc1noc(C)c1S(=O)(=O)N(C)C[C@@H]1Oc2ccc(NC(=O)Nc3ccc(F)cc3)cc2CC(=O)N([C@@H](C)CO)C[C@H]1C
 : 12 | 9
> COCC(=O)Nc1ccc2c(c1)OC[C@H](C)N(C)C[C@@H](C)[C@@H](OC)CN(C)C2=O
 : -2 | -4
> COc1ccccc1C(=O)N1C[C@H]2[C@@H](c3ccccc31)[C@@H](CO)N2Cc1ccc(F)cc1
 : 6 | 5
> C[C@H]1CN([C@@H](C)CO)C(=O)c2cc(C#CC3(O)CCCC3)cnc2O[C@@H]1CN(C)C(=O)CN(C)C
 : 18 | 13
> COc1ccccc1C(=O)Nc1ccc2c(c1)C(=O)N(C)C[C@@H](OC)[C@H](C)CN(CC1CC1)[C@@H](C)CO2
 : -9 | -9
> CCCc1cn(CC[C@@H]2CC[C@@H](NS(=O)(=O)c3ccc(-c4ccccc4)cc3)[C@@H](CO)O2)nn1
 : -32 | -24
> C[C@@H]1CCCCO[C@@H](CN(C)C)[C@H](C)CN([C@H](C)CO)C(=O)c2cc(NC(=O)Nc3ccc4c(c3)OCO4)ccc2O1
 : -9 | -3
> C[C@H]1CN([C@@H](C)CO)C(=O)c2cc(NC(=O)Cn3cnnn3)ccc2O[C@H]1CN(C)Cc1ccc(C(=O)Nc2ccccc2N)cc1
 : 14 | 7

# Next section; it opens with the 2 that closed the last part.
# Results follow in this order: Vaccinia stage | Vaccinia stage Venus
> C[C@@H]1CCCCO[C@@H](CN(C)C)[C@H](C)CN([C@H](C)CO)C(=O)c2cc(NC(=O)Nc3ccc4c(c3)OCO4)ccc2O1
 : -9 | -3
> C[C@H]1CN([C@@H](C)CO)C(=O)c2cc(NC(=O)Cn3cnnn3)ccc2O[C@H]1CN(C)Cc1ccc(C(=O)Nc2ccccc2N)cc1
 : 14 | 7
> O=C(c1ccccn1)N1CC2(C1)[C@H](c1ccccc1)[C@@H](CO)N2C(=O)CC1CC1
 : -5 | 1
> COc1ccc2c3c(n(C)c2c1)[C@@H](CO)N(S(C)(=O)=O)CC31CCN(CC2CC2)CC1
 : -6 | -5
> C[C@@H]1CN([C@H](C)CO)S(=O)(=O)c2ccc(C#CC3CC3)cc2O[C@H]1CN(C)C(=O)Cc1ccncc1
 : -11 | -1
> CC(=O)N(C)C[C@H]1Oc2cc(-c3ccc(C)cc3)ccc2S(=O)(=O)N([C@H](C)CO)C[C@@H]1C
 : 3 | -5
> O=C1CN(S(=O)(=O)c2cccc(F)c2)C[C@H]2[C@@H](c3ccc(C4=CCCC4)cc3)[C@@H](CO)N12
 : 4 | 2
> CCCNC(=O)[C@H]1[C@H](CO)[C@H]2Cn3c(ccc(-c4cccc(OC)c4)c3=O)[C@@H]1N2CCC
 : 12 | 7
> COc1ccc2c3c([nH]c2c1)[C@@H](CO)N(C(=O)Nc1c(C)noc1C)CC31CN(CC2CC2)C1
 : 2 | 2
> CCCC(=O)Nc1ccc2c(c1)C(=O)N(C)C[C@@H](OC)[C@H](C)CN(C(=O)Cc1cccnc1)[C@H](C)CO2
 : 9 | 15
> O=C(C[C@@H]1CC[C@@H](NC(=O)c2ccccc2)[C@H](CO)O1)NCCc1ccncc1
 : 0 | -3
> Cc1noc(C)c1S(=O)(=O)Nc1ccc2c(c1)C(=O)N([C@H](C)CO)C[C@@H](C)[C@@H](CN(C)C(=O)C1CCCCC1)OCCCC[C@@H](C)O2
 : -24 | -28
> C[C@@H]1CN([C@@H](C)CO)C(=O)Cc2cc(NS(=O)(=O)c3ccc(F)cc3)ccc2O[C@H]1CN(C)CC1CC1
 : 1 | -5
> C[C@@H]1CN([C@H](C)CO)C(=O)c2cc(NC(=O)Nc3ccc(C(F)(F)F)cc3)ccc2O[C@@H]1CN(C)S(=O)(=O)c1ccccc1
 : -29 | -12
> CC=Cc1ccc2n(c1=O)C[C@@H]1[C@@H](CO)[C@H](C(=O)N(C)C)[C@H]2N1CC1CC1 (mixture of isomers)
 : -3 | 1
> CCS(=O)(=O)N1CC2(C1)[C@@H](c1ccccc1)[C@@H](CO)N2C(=O)C1CC1
 : 1 | 10
> C[C@@H]1CN([C@H](C)CO)C(=O)c2cc(NC(=O)Nc3ccccc3)ccc2O[C@@H]1CN(C)C(=O)NC1CCCCC1
 : 4 | -3
> Cc1noc(C)c1NC(=O)Nc1ccc2c(c1)C(=O)N([C@H](C)CO)C[C@H](C)[C@H](CN(C)C(=O)NC1CCCCC1)O2
 : 7 | -1
> C[C@@H]1CN([C@H](C)CO)S(=O)(=O)c2ccc(Br)cc2O[C@@H]1CN(C)C(=O)CN1CCOCC1
 : 9 | 4
> COc1ccc(CN(C)C[C@@H]2OCCCC[C@@H](C)Oc3ccc(NS(=O)(=O)c4ccc(F)cc4)cc3C(=O)N([C@H](C)CO)C[C@H]2C)cc1
 : ? | nt
> C[C@@H]1CN([C@@H](C)CO)C(=O)c2cccc(NC(=O)CCCCCC(=O)Nc3ccccc3N)c2O[C@@H]1CN(C)Cc1ccc(Oc2ccccc2)cc1
 : ? | nt
> OC[C@H]1[C@@H](c2ccc(Br)cc2)[C@H]2CNCCCCN21
 : 10 | 6
> CO[C@H]1CN(C)C(=O)c2ccc(NC(=O)C3CC3)cc2OC[C@H](C)NC[C@H]1C
 : -1 | 1
> C[C@@H]1CN([C@H](C)CO)S(=O)(=O)c2ccc(C3=CCCCC3)cc2O[C@@H]1CN(C)C(=O)c1ccc(F)cc1
 : ? | nt
> C[C@H](CO)N1C[C@H](C)[C@@H](CN(C)C(=O)Nc2cccc(C(F)(F)F)c2)OCc2cnnn2CCCC1=O
 : 5 | 8
> CO[C@H]1CN(C)C(=O)c2ccc(NC(=O)CC(F)(F)F)cc2OC[C@H](C)NC[C@H]1C
 : 2 | 5
> COc1ccc(NC(=O)N(C)C[C@H]2Oc3c(cccc3N(C)C)C(=O)N([C@H](C)CO)C[C@@H]2C)cc1
 : 6 | 4
> C[C@@H]1CN([C@@H](C)CO)S(=O)(=O)c2ccc(-c3cccc(C#N)c3)cc2O[C@@H]1CN(C)C(=O)C1CC1
 : 0 | -6
> C[C@@H]1CN([C@H](C)CO)C(=O)c2cccc(NC(=O)Nc3ccccc3)c2O[C@H]1CN(C)Cc1ccc(Cl)c(Cl)c1
 : ? | nt
> C[C@@H](NC(=O)C[C@H]1C=C[C@H](NC(=O)CN2CCOCC2)[C@H](CO)O1)c1ccccc1
 : -4 | -2
> CCCC(=O)N1CC2(CN(Cc3cccnc3)C2)c2c([nH]c3cc(OC)ccc23)[C@@H]1CO
 : 4 | -6
> C[C@H]1CN([C@@H](C)CO)C(=O)CCCn2nncc2CO[C@H]1CN(C)S(=O)(=O)c1cccs1
 : 4 | 10

# Single records, as listed above.
# Shown for C[C@H](CO)N1C[C@H](C)[C@@H](CN(C)C(=O)Nc2cccc(C(F)(F)F)c2)OCc2cnnn2CCCC1=O = Vaccinia stage: 5; Vaccinia stage Venus: 8
# Shown for C[C@H]1CN([C@@H](C)CO)C(=O)c2cc(NC(=O)Cn3cnnn3)ccc2O[C@H]1CN(C)Cc1ccc(C(=O)Nc2ccccc2N)cc1 = Vaccinia stage: 14; Vaccinia stage Venus: 7
# Shown for CCCc1cn(CC[C@@H]2CC[C@@H](NS(=O)(=O)c3ccc(-c4ccccc4)cc3)[C@@H](CO)O2)nn1 = Vaccinia stage: -32; Vaccinia stage Venus: -24

# Next part
# Results follow in this order: Vaccinia stage | Vaccinia stage Venus
> CN(C)CC#Cc1ccc([C@H]2[C@@H](CO)N3CCCCN(S(=O)(=O)c4ccccc4)C[C@H]23)cc1
 : -10 | -3
> C[C@H]1CCCCO[C@H](CN(C)C(=O)c2ccccc2)[C@@H](C)CN([C@@H](C)CO)C(=O)c2cc(NS(C)(=O)=O)ccc2O1
 : 7 | 8
> C[C@@H]1CN([C@@H](C)CO)C(=O)c2cccc(N(C)C)c2O[C@@H]1CN(C)CC1CC1
 : 10 | 7
> C[C@H](CO)N1C[C@H](C)[C@H](CN(C)C)Oc2ccc(NC(=O)CCN3CCOCC3)cc2C1=O
 : 18 | 11
> Cc1ccc(S(=O)(=O)N[C@H]2CC[C@H](CCNC(=O)C3CCC3)O[C@H]2CO)cc1
 : 0 | -3
> CO[C@@H]1CN(C)C(=O)c2cc(NC(=O)CC(F)(F)F)ccc2OC[C@@H](C)N(C(C)=O)C[C@@H]1C
 : 18 | 18
> Cc1noc(C)c1S(=O)(=O)Nc1cccc2c1O[C@@H](CN(C)Cc1ccc(C(F)(F)F)cc1)[C@@H](C)CN([C@H](C)CO)C2=O
 : -14 | -3
> COc1ccc(S(=O)(=O)N(C)C[C@@H]2OCCCC[C@H](C)Oc3ccc(NS(=O)(=O)c4ccc(F)cc4)cc3C(=O)N([C@H](C)CO)C[C@@H]2C)cc1
 : -29 | -23
> CCCC(=O)Nc1ccc2c(c1)C(=O)N(C)C[C@H](OC)[C@@H](C)CN(Cc1ccccn1)[C@H](C)CO2
 : 17 | 21
> CCC(=O)N1CC(=O)N2[C@H](CO)[C@H](c3ccc(-c4ccc(C#N)cc4)cc3)[C@H]2C1
 : 11 | 3
> O=C(Nc1cccc(Cl)c1)N1C[C@@H]2[C@H](c3ccccc31)[C@@H](CO)N2Cc1ccccc1Cl
 : -28 | -24
> C[C@H]1CN([C@@H](C)CO)C(=O)CCCn2cc(nn2)CO[C@H]1CN(C)Cc1ccc2c(c1)OCCN2C
 : 4 | 13
> C[C@@H]1CN([C@@H](C)CO)C(=O)Cc2cc(NC(=O)C3CCCCC3)ccc2O[C@@H]1CN(C)Cc1ccc2c(c1)OCO2
 : -11 | -9
> C[C@H]1CN([C@@H](C)CO)C(=O)c2cc(C3=CCCCC3)cnc2O[C@H]1CN(C)C(=O)Nc1ccccc1
 : -9 | -10
> CN1C(=O)c2cc(NC(=O)NCc3ccccc3)ccc2OC[C@@H]2O[C@H](CC(=O)O)CC[C@H]21
 : 16 | 20
> COc1ccc(C#Cc2ccc([C@H]3[C@H]4CN(C(=O)Nc5ccccc5F)CCCCN4[C@H]3CO)cc2)cc1
 : -17 | -13
> CNC[C@@H]1Oc2c(NC(=O)c3nc4ccccc4s3)cccc2C(=O)N([C@@H](C)CO)C[C@@H]1C
 : -3 | 11
> C[C@@H]1CN([C@@H](C)CO)C(=O)c2c(c3ccccc3n2C)-c2ccccc2CO[C@@H]1CN(C)Cc1cccc(O)c1
 : ? | nt
> CCCNC(=O)C[C@H]1C[C@@H]2c3cc(NC(=O)Nc4ccc(F)cc4)ccc3O[C@@H]2[C@@H](CO)O1
 : -1 | 1
> COc1ccccc1NC(=O)Nc1ccc2c(c1)C(=O)N(C)C[C@H](OC)[C@H](C)CN[C@@H](C)CO2
 : -6 | -10
> C[C@H]1CCCCO[C@H](CN(C)CC2CC2)[C@@H](C)CN([C@@H](C)CO)C(=O)c2cc(NS(C)(=O)=O)ccc2O1
 : 40 | 20
> C[C@@H]1CN([C@@H](C)CO)C(=O)Cc2cc(N(C)C)ccc2O[C@H]1CN(C)C
 : 0 | -2
> COc1ccc(S(=O)(=O)N(C)C[C@@H]2Oc3cc(C#CC4CCCC4)ccc3S(=O)(=O)N([C@@H](C)CO)C[C@H]2C)cc1
 : -34 | -35
> CO[C@@H]1CN(C)C(=O)c2ccc(NS(C)(=O)=O)cc2OC[C@@H](C)N(C(=O)C2CCOCC2)C[C@H]1C
 : 4 | -2
> CCCNC(=O)C[C@H]1C[C@H]2c3cc(NS(=O)(=O)c4cccc(OC)c4)ccc3O[C@H]2[C@H](CO)O1
 : 6 | -1
> CNC[C@@H]1Oc2cc(C#CCOC)ccc2S(=O)(=O)N([C@@H](C)CO)C[C@H]1C
 : 13 | 15
> CO[C@H]1CN(C)C(=O)c2cc(NC(=O)NC3CCCCC3)ccc2OC[C@H](C)N(CCc2ccccc2)C[C@@H]1C
 : ? | nt
> Cc1noc(C)c1S(=O)(=O)Nc1ccc2c(c1)CC(=O)N([C@H](C)CO)C[C@H](C)[C@@H](CN(C)Cc1ccc(C(=O)O)cc1)O2
 : 13 | 1
> C[C@H](CO)N1C[C@H](C)[C@@H](CN(C)Cc2ccc(Cl)c(Cl)c2)Oc2ccc(NS(=O)(=O)c3ccc(Cl)cc3)cc2C1=O
 : -29 | -15
> Cc1ccc(S(=O)(=O)Nc2ccc3c(c2)CC(=O)N([C@H](C)CO)C[C@@H](C)[C@@H](CN(C)Cc2ccc(-c4ccccc4)cc2)O3)cc1
 : -23 | -20
> COc1ccc(NC(=O)N(C)C[C@H]2Oc3ccc(NC(=O)Nc4ccc(C(F)(F)F)cc4)cc3CC(=O)N([C@H](C)CO)C[C@H]2C)cc1
 : 5 | 7
> O=C(C1CCOCC1)N1CC(=O)N2[C@@H](CO)[C@H](c3ccc(/C=C/c4ccccc4)cc3)[C@@H]2C1
 : 1 | 4
> COC(=O)c1ccc(CN2CC(=O)N3[C@@H](CO)[C@@H](c4ccc(-c5cccnc5)cc4)[C@@H]3C2)cc1
 : 12 | 5
> C[C@@H]1CCCCO[C@@H](CN(C)C(=O)Nc2ccccc2)[C@@H](C)CN([C@@H](C)CO)C(=O)c2cc(NS(=O)(=O)c3ccc(Cl)cc3)ccc2O1
 : -18 | -12
> CCS(=O)(=O)NCC[C@H]1CC[C@H](NC(=O)C2CCC2)[C@@H](CO)O1
 : 7 | 11
> CC(=O)N(C)C[C@@H]1Oc2cc(C3=CCCC3)ccc2S(=O)(=O)N([C@H](C)CO)C[C@@H]1C
 : -12 | -11
> CC(C)C[C@H]1COCn2nncc2CC[C@@H](Cc2ccccc2)C(=O)N1
 : -10 | -14
> Cc1noc(C)c1NC(=O)Nc1cccc2c1O[C@H](CN(C)C(=O)NC(C)C)[C@@H](C)CN([C@@H](C)CO)C2=O
 : 2 | -4
> C#Cc1ccc([C@H]2C=C(C(=O)N3CCOCC3)O[C@@H](OCCCCO)C2)cc1
 : 13 | 9
> O=C(CN1CCOCC1)N1CCCCN2[C@H](CO)[C@H](c3ccc(C#Cc4ccccc4)cc3)[C@@H]2C1
 : ? | nt
